NPYLR7 agonist: activates Aedes aegypti NPYLR7 receptor; 0.15% of 270,000 active; AID 1259423; activation, % at 10 µM; HEK293T NPYLR7/Galpha15, GCaMP6s calcium fluorescence; in the data active = activation above about 40%;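 note: 0% = vehicle and 100% = reference agonist at the receptor; some compounds past the cut are filed as inactive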
NPYLR7 agonist max-min: further read-out of NPYLR7 agonist, marked with its call; activation, %; measured here: Max-Min RFU normalised activation; some inactives read as strong as hits;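 span of the calcium signal over five minutes; 0% = vehicle and 100% = native peptide agonist; compound fluorescence can raise it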
Starred values were filed as active, the others as inactive; & = joins results of further samples. These rows are one share of the data; count on the stated rates, not on these rows.

SMILES | NPYLR7 agonist | NPYLR7 agonist max-min
Cc1nccc(-c2cccc(-n3ccnc3C(C)C)c2)n1 | 12 | 9
O=c1cc(Cn2cnc3ccc(Cl)cc3c2=O)c2cc3c(cc2o1)CCC3 | 10 | 10
Cc1c(Br)c([N+](=O)[O-])nn1CC(=O)Nc1nc2ccccc2n1C | -5 | -5
COCCCNC(=O)c1cc(NC(=O)c2ccc(Cl)cc2Cl)ccc1N1CCc2ccccc2C1 | 16 | 20
O=C(O)c1coc2c1C(=O)CCC2 | -1 | -2
CC(=O)N1CCC(NCCSCc2ccccc2C)CC1 | -2 | 4
COc1ccc(Cc2nc(CSc3nc(C(C)(OC)OC)ccc3C#N)cs2)cc1 | 3 | -2
CCOc1ccc(/C=C2\N=C(c3ccccc3F)OC2=O)cc1 | 4 | -7
COc1cccc(NC(=O)CSc2ccc(-c3sc(-c4cccs4)nc3C)nn2)c1 | 5 | -7
COc1ccc(OC)c(NC(=O)C2(C)CCN2Cc2ccccc2OC(F)F)c1 (stereo not drawn) | -3 | 0
CCN1CC2([N+](=O)[O-])CC=C(OC)C([N+](=O)[O-])(C1)C2 (stereo not drawn) | -7 | -8
O=C(c1ccccc1)N1CCN(Nc2ccncc2S(=O)(=O)N2CCCCC2)CC1 | 1 | -4
CCCNc1nc(-c2cccc(N3CCCC3=O)c2)cs1 | -2 | -4
Cc1nc2sc(C)c(C)n2c(=O)c1NC(=O)C(C)C | 18 | 10
Cc1ccsc1CN(Cc1ccc(F)cc1)C(=O)CN(C(=O)C(Cl)c1ccccc1)C1CCCCC1 (stereo not drawn) | -7 | -2
CCCN(CC(=O)NCC(=O)Nc1ccc(C)cc1)C(=O)c1cc(OC)c(OC)c(OC)c1 | 1 | -7
COc1ccc2c3c1CN(C(=O)NCc1ccccc1)CC3=CC(C)(C)CO2 | 1 | 5
Cc1noc(C)c1CNC(=O)C1(c2cccc(F)c2)CCCC1 | 2 | 1
Cc1oc(C(C)C)cc1C(=O)N1CCn2c(C(N)=O)cnc2C1 | 9 | 9
O=C(c1cc(=O)c(OCc2ccccc2)co1)N1CCN(c2ccccc2)CC1 | 0 | -3
O=C(O)C(NCc1ccccc1)c1ccc(C(F)(F)F)cc1 (stereo not drawn) | 1 | 7
CCNC(=O)N1CCC(NC2CCN(c3cc(C)cc(C)c3)CC2)CC1 | 23 | 15
CCOC(=O)COc1cc2c(-c3cc4cccc(OC)c4o3)cc(=O)oc2cc1C | -2 | -6
CCOC(=O)c1nc2cc(C)c(C)cc2nc1N1CCN(S(=O)(=O)c2ccccc2Cl)CC1 | 4 | 2
Cc1ccc(C(C)C)c(OCC(=O)N(C)Cc2cnn(-c3ccccc3)c2)c1 | -1 | 2
CC(NC(=O)c1cc2cc(F)ccc2s1)c1cccc(S(N)(=O)=O)c1 (stereo not drawn) | 10 | 9
Cc1ccc(C(C)(C)NC(=O)c2cc(COc3ccccc3F)[nH]n2)cc1 | 0 | -7
O=C1NCC2(CCCN(C(=O)c3ccc4c(c3)OCCO4)CC2)O1 (stereo not drawn) | -3 | -5
Cc1cccc(NC(=O)c2cccc([N+](=O)[O-])c2)n1 | 11 | 3
CCc1ccc(NC(=O)c2cc(-c3cccc(OC)c3)nc3ccccc23)cc1 | 4 | -3
O=C(C=Cc1ccc2c(c1)OCCO2)c1cc(Br)ccc1O | -4 | -6
CC(=O)NCc1ccc(S(=O)(=O)N(C)c2ccccc2)s1 | 0 | 0
CCNc1nc(NC(C)CC)nc(Oc2ccc(C(=O)OCC(=O)OC)cc2)n1 (stereo not drawn) | 2 | 4
O=C(NC1CCN(Cc2ccccc2)C1)C1CCCCC1C(=O)N1CCc2c([nH]c3ccccc23)C1 (stereo not drawn) | -9 | -12
O=C(CCOc1ccccc1)N1CCC2(CCCN(CCc3ccccc3)C2)C1 (stereo not drawn) | 15 | 12
Cc1ccc(CNC(=O)Cn2nc(-c3ccco3)c3sc(N4CCCC4)nc3c2=O)cc1 | -4 | -7
CC(C)NC(=O)C1(C)CCN1C(=O)c1ccc2c(c1)OCO2 (stereo not drawn) | 1 | 0
O=C(O)CC1NC(=O)NC1=O (stereo not drawn) | -3 | -5
C1=CCN(c2ccc(CNCc3csc4ccccc34)cc2)C1 | 12 | 10
CCOc1ccccc1N1CCN(C(=O)c2cc(-c3ccccc3F)n3nc(C(C)(C)C)cc3n2)CC1 | -7&19 | -1&21

Next part, starting with the last four of the part before.
SMILES | NPYLR7 agonist | NPYLR7 agonist max-min
CC(C)NC(=O)C1(C)CCN1C(=O)c1ccc2c(c1)OCO2 (stereo not drawn) | 1 | 0
O=C(O)CC1NC(=O)NC1=O (stereo not drawn) | -3 | -5
C1=CCN(c2ccc(CNCc3csc4ccccc34)cc2)C1 | 12 | 10
CCOc1ccccc1N1CCN(C(=O)c2cc(-c3ccccc3F)n3nc(C(C)(C)C)cc3n2)CC1 | -7&19 | -1&21
COc1cc2c(cc1OC)C(=O)NC1(CCSCC1)N2 | 6 | 6
CC(SC1=NCCS1)C(=O)Nc1ccc(F)cc1 (stereo not drawn) | 2 | -2
CCN(CC)C(=O)Oc1ccc2c(ccn2Cc2ccc(Cl)cc2)c1NC(=O)[C@H](C)OC(C)=O | -2 | 0
C=C(C)COc1ccc(-c2nc(N)ncc2Oc2ccccc2OC)c(O)c1 | 3 | 0
CC(C)c1noc(-c2ccc(N3CCCCC3CC(N)=O)nc2)n1 (stereo not drawn) | 8 | 9
Cc1nc(N2CCN(C)CC2)sc1C(=O)N(C)C | 14&0 | 12&0
Cc1cc(S(=O)(=O)n2ccnc2)c(Cl)cc1Cl | 0&16 | 8&14
O=C(Nc1c[nH]ccc1=O)c1ccc(SCc2ccccc2)cc1 | 13 | 12
O=C(COC(=O)C12CC3CC(CC(Br)(C3)C1)C2)NC1CC1 | 2 | 1
COCc1n[nH]c(=S)n1-c1ccccc1 | -1 | 7
O=C(NCCc1ccccn1)c1ccc(CSc2nc(N3CCN(c4ccccc4Cl)CC3)cc(C(F)(F)F)n2)o1 | 12 | 10
CCSc1nnc2c(n1)OC(c1cc3c(cc1Cl)OCO3)Nc1ccccc1-2 (stereo not drawn) | 6 | -1
COc1cccc(CN2CCN(Cc3ccc4c(NC(C)=O)cccc4n3)CC2CCO)c1 (stereo not drawn) | 5 | 0
COc1ncccc1-c1ncccc1NC(=O)C(C)C | 2 | -1
CC(=O)Nc1ccc(S(=O)(=O)NCCc2sc3nc(-c4ccc(Cl)cc4)nn3c2C)cc1 | 0 | 0
Cc1cccc(-n2nc(C)c(C(=O)NCC(C)C)c2C(C)C)c1 | -5 | -1
O=C(NCc1ccn[nH]1)C(=O)Nc1ccc(Br)cc1Cl | -1 | -2
Cc1ccc(-n2c(SCCC(N)=O)nnc2-c2ccncc2)cc1 | 0 | -1
O=C(CSc1ncnc2c1nnn2Cc1ccccc1)NC1CCCCC1 | 5 | 25
NC(c1cc(Cl)cc([N+](=O)[O-])c1O)P(=O)(O)O (stereo not drawn) | -4 | -5
COCC(=O)N[C@H]1CC[C@]2(C)CCC([C@H](C)C(=O)N3CCC(Cc4ccccc4)CC3)[C@H](O)[C@H]2[C@@H]1C (stereo partly drawn) | -9 | -15
Cc1cc(OC(=O)c2c(F)cccc2F)c([N+](=O)[O-])c(=O)[nH]1 | 20 | 20
CC(C)c1ncc(S(=O)(=O)N2CCc3ccccc3CC2)[nH]1 | 0&3 | -1&-1
CCn1c(C)cc(C(=O)CSc2nnc(NC3CC3)s2)c1C | 6 | 15
CCOC(=O)C1(CCOC)CCN(Cc2c(C)n(C)n(-c3ccccc3)c2=O)CC1 | -1 | -3
O=C(COCc1ccccc1)NCCNc1nc(-c2cccs2)nc2cc(Cl)ccc12 | 21 | 30
CCC(NC(=O)CCc1c(C)nc(SC)nc1C)c1ccc(Cl)cc1 (stereo not drawn) | -2 | 1
Cc1ccc(-c2csc3ncnc(N4CCCC(O)C4)c23)cc1C (stereo not drawn) | -7 | -7
COc1ccc2c(c1)CCN2C(=O)Nc1ccc(N2CCCC2)nc1 | 5 | 2
CC(C)(C)NC(=O)N1CCn2cccc2C1c1ccc(Cl)cc1Cl (stereo not drawn) | 6 | 4
CCOC(=O)C1(NC(=O)c2ccc(-n3cnnc3)cc2)CCC1 | 3 | 2
C=CCNC(=O)O[C@@H]1C[C@](O)(C(=O)N[C@@H](Cc2ccc(OC)cc2)C(N)=O)C[C@H](NC(=O)NC2CCCCC2)[C@H]1O | -7 | -14
COc1cccc(Nc2nc(C(N)c3ccccc3Cl)cs2)n1 (stereo not drawn) | -6 | -10
CC(=O)NC(C)(c1ccccc1)c1nc(-c2ccncc2)cs1 (stereo not drawn) | 7 | 3
c1cnn(CC2CN(c3ncnc4c3CCC4)CCO2)c1 (stereo not drawn) | 1 | -3
COc1c(C)cc(-c2cc(C(N)=O)ccn2)cc1C | 24 | 16
CC1CCN(c2ccc(NC(=O)c3ccc([N+](=O)[O-])cc3Cl)cc2C(=O)NC2CC2)CC1 | 21 | 20
CCOC(CCC1C(CO)c2ccccc2N1C(C)=O)OCC (stereo not drawn) | 1 | 5
N#CCSc1nnc(CC2CCS(=O)(=O)C2)o1 (stereo not drawn) | 2 | 1
CCOC(=O)CNC(=O)N1CCN(c2nc(CCc3ccccc3)nc3sc(C)c(C)c23)CC1 | -2 | -1
CC(O)CN1CCN(CC(=O)N(C)Cc2ccc(Cl)s2)CC1 (stereo not drawn) | -1 | -2
CC(=O)N1CCc2cc(NC(=O)C3(C)CCN3CCOc3ccccc3)ccc21 (stereo not drawn) | 4 | 1
CN1CCC2(CCN(C(=O)COCC(F)(F)C(F)F)CC2)C1 | 6 | 6
O=C(CSc1nnc(NC(=O)COc2ccccc2)s1)Nc1ccc(Br)cc1 | -5 | 4
O=C1CSC(=O)N1Cc1cc2c(cc1Cl)OCO2 | 1 | -2
CN1CCc2cc(C(CNC(=O)NCc3ccccc3)N3CCOCC3)ccc21 (stereo not drawn) | -8 | -11
C=CCN(C(=O)c1ccc(N2CCCC2)nc1)C1CCCC1 | 4 | 3
COc1ccccc1CNc1nc2ccccc2nc1S(=O)(=O)c1ccc(C)cc1 | 1 | 0
Cc1cc(NC(=O)C2CC(=O)N(c3ccc(C)c(C)c3)C2)n(-c2nc3c(c(=O)[nH]2)CCC3)n1 (stereo not drawn) | 11 | 4
Cc1ccccc1C(=O)Nc1ccnn1C1CCN(C(=O)C2CC23CCCC3)CC1 (stereo not drawn) | 8&7 | 6&1

Continued.
SMILES | NPYLR7 agonist | NPYLR7 agonist max-min
CSc1ccccc1C(=O)N1CCCC(CNC(=O)c2ccc(-c3ccccc3)cc2)C1 (stereo not drawn) | 11 | -1
Cc1cnc(C)c(Nc2nc(C(N)Cc3ccc(Cl)cc3)cs2)n1 (stereo not drawn) | -5 | -9
CCOC(=O)C1CCN(C(=O)c2ccc(CSc3nc(N(C)CCc4ccc(OC)c(OC)c4)cc(C(C)(C)C)n3)cc2)CC1 | -2 | -7
CC1CCCN(S(=O)(=O)N(C)CC(=O)NC2CC2)C1 (stereo not drawn) | 4 | 3
CCn1c(=O)c2c(nc3n(C(C)c4ccccc4)c(C)cn23)n(C)c1=O (stereo not drawn) | -1 | 1
FC(F)(F)Oc1cccc(-c2cccc(Nc3ccc(Oc4ccccc4)cc3)n2)c1 | -12 | -14
CCN(CC)S(=O)(=O)c1ccc(C(=O)N(C)C2CCS(=O)(=O)C2)cc1 (stereo not drawn) | -1 | -4
CC(C)Oc1ccc(NC(=O)N(C)CC(O)c2ccc(F)cc2)cc1 (stereo not drawn) | 6 | 5
Cc1ccc(-n2c(SCC(=O)N3CCOCC3)nc3c(c2=O)SCC3)cc1 | -4 | -5
CN(Cc1ccc(-n2cncn2)cc1)CC1CCCCO1 (stereo not drawn) | -1 | 4

A second format for some results above:
> Cc1cc(NC(=O)C2CC(=O)N(c3ccc(C)c(C)c3)C2)n(-c2nc3c(c(=O)[nH]2)CCC3)n1 (stereo not drawn)
  NPYLR7 agonist: 11	NPYLR7 agonist max-min: 4

> Cc1cc(OC(=O)c2c(F)cccc2F)c([N+](=O)[O-])c(=O)[nH]1
  NPYLR7 agonist: 20	NPYLR7 agonist max-min: 20

> CCCN(CC(=O)NCC(=O)Nc1ccc(C)cc1)C(=O)c1cc(OC)c(OC)c(OC)c1
  NPYLR7 agonist: 1	NPYLR7 agonist max-min: -7

> FC(F)(F)Oc1cccc(-c2cccc(Nc3ccc(Oc4ccccc4)cc3)n2)c1
  NPYLR7 agonist: -12	NPYLR7 agonist max-min: -14

Remaining list, next part.
SMILES | NPYLR7 agonist | NPYLR7 agonist max-min
Cc1cnc(C(=O)N2CCCC(Nc3ccc(C(C)C)cc3)C2)cn1 (stereo not drawn) | -4 | -4
Cc1nc2ccccn2c(=O)c1NC(=O)c1ccc([N+](=O)[O-])cc1 | 3 | 0
COc1ccc(-c2cccc(-c3cccc(NC(=O)c4c(-c5c(Cl)cccc5Cl)noc4C)c3)n2)cc1 | 2 | -2
C=c1cc(C)n(CC(=O)Nc2cccc(Cl)c2C)c(=O)c1=C1N=C(c2ccccc2)NO1 | 2 | -4
O=C(c1cccc(Nc2c(Oc3cccc(Cl)c3)cnn(-c3ccccc3)c2=O)c1)N1CCOCC1 | -5 | -1
COc1ccc(-n2ccnc2C2CC(=O)Nc3cc(O)c(C)cc32)cc1 (stereo not drawn) | 11 | 9
Cc1ccccc1C1c2ccsc2CCN1C(C)C(=O)N1CCCN(S(=O)(=O)c2ccc(C(C)(C)C)cc2)CC1 (stereo not drawn) | 8 | -5
O=C(c1cc(Cl)ccc1OC(F)F)N1CCC(O)CC1 | -20 | -23
CC(=O)N1CCc2cc(S(=O)(=O)NC(C)c3ccco3)ccc21 (stereo not drawn) | 3 | 1
COCCN1CCN(Cc2nc(-c3ccoc3)no2)CC1 | 9 | 5
COc1ccc(NC(=O)c2sc(=O)n(CCOc3ccc(F)cc3)c2C)cc1OC | 15 | 10
O=C(NNc1ncnc2c1cnn2-c1ccc(Cl)cc1)c1cccc([N+](=O)[O-])c1 | 1 | 2
CSc1sc(SC)c(CCl)c1CCl | 11 | 8
CCc1ccc(S(=O)(=O)NCCc2csc3nc(-c4ccccc4F)nn23)s1 | 21 | 10
Nc1nc(CN2c3cccc4cccc(c34)S2(=O)=O)nc(N2CCOCC2)n1 | 2 | 1
